Compound activity as filed in PubChem BioAssay.
VACV mCherry inh: qHTS for Stage-Specific Inhibitors of Vaccinia Orthopoxvirus: mCherry Reporter Primary qHTS | AID 720579, 2013 | Potency, µM (titrated, usually from 36.5 µM), inactives show top-dose activity change, negative = inhibition, actives largely listed as inhibitors | 310,000 tested, 0.63% active | Vaccinia virus mCherry reporter infection, fluorescence; about a quarter of the inactives have no number; active = well fitted inhibition curve with a large enough effect; inconclusive = small, poorly fitted or top-dose-only effect; inactive = no such curve, though single readings can be large or run the other way; tested in A549 cells; further: nearly all actives have a fitted effect of over 35% in size; inactives centre near -10
VACV Venus inh: qHTS for Stage-Specific Inhibitors of Vaccinia Orthopoxvirus: Venus Reporter Primary qHTS; Vaccinia virus Venus reporter expression, fluorescence; Potency, µM (titrated, usually from 36.5 µM), for the others: top-dose activity change, negative = inhibition, actives largely listed as inhibitors; 330,000 tested, 0.46% active; active means well fitted inhibition curve with a large enough effect; inconclusive means small, poorly fitted or top-dose-only effect; inactive means no such curve, though single readings can be large or run the other way; tested in A549 cells; further: nearly all actives have a fitted effect of over 30% in size; inactives centre near -10
* hit, by the source's call; i = inactive; ? = inconclusive; / = not tested or not shown; & = joins results of further samples; ! = repeats disagree; [ ] = dose if it differs, or a comment. On the % scale 0 is the no-effect control and ±100 the full control effect; potency means the concentration at half of the fitted maximal effect.

SMILES	VACV mCherry inh	VACV Venus inh
O=C1NC(c2ccc3ccccc3c2)Nc2ccccc21 (centres undefined)	-25%	?
CCN(Cc1ccc(OC)c(F)c1)C(=O)c1cc2ccccc2o1	i	0%
CCN(C(=O)COc1ncnc2ccccc12)C1CCCCC1	-9%	-6%
CCCC(=O)Nc1ccccc1NC(=O)c1ccc(OC)cc1	i	-8%
CCc1nc2ccc(C(=O)NCc3ccccc3OC)cn2c1N(C)C(=O)Cc1ccccc1	27%	-6%
CCn1c2ccccc2c2cc(NC(=O)CSc3nnnn3-c3ccccc3)ccc21	/	-19%
CC1=CC2=NC(=O)/C(=C\c3cn(C)c4ccccc34)C(=N)N2O1	i	-4%
CC(=O)N1c2ccc(S(=O)(=O)N3CCC(C(=O)Nc4cccc(Cl)c4C)CC3)cc2CC1C (centres undefined)	-7%	-16%
Cc1ccn2cc(-c3cccc(S(=O)(=O)N4CCCC4)c3)nc2c1	i	-17%
Cc1cc(C(=O)N2CCOc3ccc(CN4CCC(Oc5cccnc5)CC4)cc3C2)c(C)o1	-9%	3%
CN(C)c1ccc(C(I)C(I)c2ccnc3ccccc23)cc1 (centres undefined)	-16%	14%
Cc1ccc(NC(=O)CSCc2n[nH]c(=O)[nH]2)c(Br)c1	i	-2%
O=C(Nc1ccccc1)Nc1nnc(COc2ccccc2F)s1	-17%	-10%
O=C1NC(=O)N(c2ccc(Cl)cc2)C(=O)/C1=C/c1ccc2c(c1)CCN2Cc1ccccc1Cl	i	-11%
COCCCNC(=O)c1ccc(-n2c(-c3ccccc3)cc3c2CCCCC3)cc1	-15%	-11%
COc1ccc(C2N(c3ccc(Cl)cc3)C(=O)C3CCCN32)cc1 (centres undefined)	-3%	-7%
c1ccc(OCCNc2ccn3nc(-c4ccc(OCCN5CCOCC5)cc4)cc3n2)cc1	-9%	-9%
COc1ccc(C2c3c(-c4ccc(F)cc4)n[nH]c3C(=O)N2c2ccccc2)cc1OC (centres undefined)	-16%	-1%
CN(C)S(=O)(=O)c1ccc(N2CCCC2)c(C(=O)NCC2CCCCC2)c1	i	-17%
CN(C)c1ccnc2sc(C(=O)NCc3ccccc3)c(N)c12	i	-13%
O=C(NC1CCCc2ccccc21)C1CCN(S(=O)(=O)c2cccc(C(F)(F)F)c2)CC1 (centres undefined)	-2%	-16%
O=C(CSc1nnc(SCc2ccc(Cl)cc2)s1)N/N=C/c1ccc(C(=O)O)cc1	?	-16%
COc1ccc(C(CNC(=O)COc2ccc(-c3ccccc3)cc2)N2CCOCC2)cc1 (centres undefined)	-14%	-24%
CSc1cccc(NC(=O)CN(c2ccccc2)S(=O)(=O)N(C)C)c1	-5%	1%

Molecules listed so far with a Cl atom:
SMILES	VACV mCherry inh	VACV Venus inh
CC(=O)N1c2ccc(S(=O)(=O)N3CCC(C(=O)Nc4cccc(Cl)c4C)CC3)cc2CC1C (centres undefined)	-7%	-16%
O=C1NC(=O)N(c2ccc(Cl)cc2)C(=O)/C1=C/c1ccc2c(c1)CCN2Cc1ccccc1Cl	i	-11%
COc1ccc(C2N(c3ccc(Cl)cc3)C(=O)C3CCCN32)cc1 (centres undefined)	-3%	-7%
O=C(CSc1nnc(SCc2ccc(Cl)cc2)s1)N/N=C/c1ccc(C(=O)O)cc1	?	-16%

Carrying on:
SMILES	VACV mCherry inh	VACV Venus inh
CCC(C)NC(=O)CC1Oc2ccc(C)cc2NC1=O (centres undefined)	-5%	1%
CCC(CC)c1nnc(NC(=O)C23CC4CC(CC(NC(C)=O)(C4)C2)C3)s1	-8%	-17%
COc1ccc(N2Cc3ccccc3/C2=N\C(=O)Nc2ccccc2)cc1	4%	-2%
O=C(COc1ccc2oc(-c3ccccc3)cc(=O)c2c1)NCc1ccco1	/	-18%
O=C(Oc1ccccc1Cl)c1ccc2c(=O)n3c(nc2c1)CCC3	-8%	-5%
CCc1ccc(NC(=O)C2CCCN2C(=O)NC2CCCCC2)cc1 (centres undefined)	i	-12%
S=c1[nH]nc(C2CCCCC2)n1/N=C/c1cccc(Br)c1	-1%	-5%
C[C@@H]1CN([C@H](C)CO)C(=O)CCCn2nncc2CO[C@H]1CN(C)S(=O)(=O)c1ccc2c(c1)OCCCO2	-3%	-15%
O=C(/C=C/c1ccccc1[N+](=O)[O-])Nc1cccc(S(=O)(=O)NC2=NCCCCC2)c1	i	-17%
CCOc1ccccc1CNS(=O)(=O)c1ccc2[nH]c(=O)sc2c1	/	-26%
Cc1cccc(/C=C(\C(=O)O)c2ccc(S(=O)(=O)N3CCCC3)s2)c1	-15%	1%
CCc1ccc(NC(=O)c2cnc(N3CCN(c4ccccn4)CC3)c3ccccc23)cc1	-30%	?
Cc1ccccc1-n1c(SCc2csc(Nc3ccccc3)n2)nnc1-c1cccnc1	-3%	-26%
O=C(CNC(=O)c1ccccc1Cl)c1ccccc1	i	-1%
O=C(CCc1nc2ccccc2c(=O)[nH]1)Nc1ccccc1N1CCCC1	i	-4%
O=C(NCc1cc(C(F)(F)F)cc(C(F)(F)F)c1)c1cc(-c2cc(F)ccc2OCC2CCCO2)n[nH]1 (centres undefined)	19%	-6%
CSc1cccc(-c2nnc(NC(=O)c3cccc(N4C(=O)CCC4=O)c3)o2)c1	-3%	-14%
NC(=N\N=CCc1ccccc1)/C(N)=N/N=CCc1ccccc1	-26%	0%
Cc1c(C(=O)Oc2cccc3ccccc23)cnn1-c1ccccc1	/	-10%
CCc1ccc2oc(=O)cc(CN3CCN(c4ccc(F)cc4)CC3)c2c1	/	-22%
Cc1ccc(S(=O)(=O)N2CCC[C@H]2C(=O)Oc2ccccc2)cc1	0%	-1%
CC(C)(C)OC(=O)N/N=C\C=C\c1ccc2c(c1)OCO2	i	-8%
CCOc1ccc(C(=O)Nc2cccc(NC(=O)c3ccco3)c2)cc1Cl	-10%	-12%
CSc1ccccc1NP1(=O)OCC(C)([N+](=O)[O-])CO1 (centres undefined)	i	-5%
Cc1ccc(C)c(OCCC(=O)OCC(=O)Nc2cc(S(=O)(=O)N3CCOCC3)ccc2C)c1	-13%	-5%
Cc1cc(C)n(-c2nnc(Nc3ccc(C)c(C)c3)c3ccccc23)n1	-19%	-15%
C=CCn1c(C(C)NC(=O)C(C)(C)C)nc2ccccc21 (centres undefined)	i	9%
COc1cc(CC(=O)N2CCN(C(=O)C3CCCO3)CC2)cc(OC)c1OC (centres undefined)	i	3%
CN(C(=O)Cn1cnc2onc(-c3ccc(F)cc3)c2c1=O)c1ccccc1Cl	-11%	-2%
CCOc1ccc(-n2c(Cc3ccccc3)nnc2SCc2c(C)noc2C)cc1	/	-29%
Cn1c(N)c(S(=O)(=O)N2CCN(Cc3ccccc3)CC2)c(=O)n(C)c1=O	-5%	-9%
CC1CCc2c(sc(NC(=O)c3noc4c3CCCC4)c2C(N)=O)C1 (centres undefined)	-2%	-11%
CCC(C)(C)NC(=O)CN(Cc1ccc2c(c1)OCO2)C(=O)CCC(=O)Nc1cc(C)ccn1	-15%	-12%
O=C(Nc1ccccc1F)N(CCCN1CCOCC1)Cc1cc2cc3c(cc2[nH]c1=O)OCCO3	/	-28%
Cc1c(NC(=O)OCCNC(=O)COc2c(Cl)cccc2Cl)sc(=S)n1C	-10%	-7%
CSc1nc2ccccc2cc1/C=C(\C#N)c1ccc(Cl)cc1Cl	/	-8%

The final seven compounds of the section above open the next one.
SMILES	VACV mCherry inh	VACV Venus inh
CCOc1ccc(-n2c(Cc3ccccc3)nnc2SCc2c(C)noc2C)cc1	/	-29%
Cn1c(N)c(S(=O)(=O)N2CCN(Cc3ccccc3)CC2)c(=O)n(C)c1=O	-5%	-9%
CC1CCc2c(sc(NC(=O)c3noc4c3CCCC4)c2C(N)=O)C1 (centres undefined)	-2%	-11%
CCC(C)(C)NC(=O)CN(Cc1ccc2c(c1)OCO2)C(=O)CCC(=O)Nc1cc(C)ccn1	-15%	-12%
O=C(Nc1ccccc1F)N(CCCN1CCOCC1)Cc1cc2cc3c(cc2[nH]c1=O)OCCO3	/	-28%
Cc1c(NC(=O)OCCNC(=O)COc2c(Cl)cccc2Cl)sc(=S)n1C	-10%	-7%
CSc1nc2ccccc2cc1/C=C(\C#N)c1ccc(Cl)cc1Cl	/	-8%
CCOC(=O)N1CCC(NC(=O)Cn2ncc3ccccc32)CC1	-4%	-2%
COc1ccccc1NC(=O)/C=C/C(N)=O	-17%	-5%
Cc1ccc(CNC(=O)CCS(=O)(=O)c2cc3c(cc2Cl)NC(=O)CO3)cc1	2%	-3%[7.34 µM]
CN(C)CCNC(=O)c1ccccc1-c1cc2ccccc2c(=O)o1	-2%	-6%
Cc1cccc(CSCCNC(=O)C2CCN(S(=O)(=O)Cc3ccccc3)CC2)c1	-11%	-1%
CCCCCCn1c(/C=C/c2ccccc2)nc2ccccc21	-9%	-15%
Cc1cc(C)cc(C(O)c2ncc(-c3ccc(C(F)(F)F)cc3)[nH]2)c1 (centres undefined)	2%	-15%
Cc1ccc(NC(=O)CCC(=O)N2CCC(c3ccccc3)=N2)cc1S(=O)(=O)N1CCCCC1	-28%	?
CCN(CC)CCCNC(=O)CCc1ccccc1	/	-1%
O=C(c1ccccn1)N1CC=C(c2ccccc2)CC1	-8%	-15%
O=C(CCNS(=O)(=O)c1ccc(Cl)cc1)OCC(=O)c1ccc[nH]1	i	1%
COC(=O)c1[nH]c2cccc(Cl)c2c1NC(=O)CN1CCCCC1C (centres undefined)	i	-6%
Cc1ccc(NC(=S)N(CCCN2CCC(C)CC2)Cc2ccco2)cc1	-10%	-12%
Cc1ccc(S(=O)(=O)N2CCCCC2)cc1C(=O)Nc1ccc2cn[nH]c2c1	-7%	-25%
O=C(Nc1ccc(F)cc1)c1cc(-c2ccncc2)nc2c(Cl)cccc12	-27%	-24%
CCOC(=O)c1nnn(-c2nonc2N)c1COc1c(C=O)cccc1OC	-17%[1.46 µM]	-9%
O=C(c1ccc(Br)cc1)c1coc2ccc(O)cc12	-26%	-17%
O=C(Cn1nnc(-c2ccccc2)n1)NNC(=O)c1ccco1	-4%	-13%
COc1ccccc1CCc1nnc(CCC(=O)NCCOc2cccnc2)o1	i	-14%
COc1ccc(S(=O)(=O)NC(C)C(=O)Nc2ccc3c(c2)OCCO3)cc1OC (centres undefined)	-20%	2%
Fc1ccc(-c2cc3nc4c(c(N5CCOCC5)n3n2)CCCC4)cc1	-27%	-20%
CCOc1ccc(-c2cc3nc(C4CCN(C(=O)OC(C)(C)C)CC4)c(C(=O)Nc4ccc(C)cc4C)cn3n2)cc1	-16%	-11%
c1ccc2c(c1)[I+]c1ccccc1-2	13µM*!	10µM*!
CCn1c2ccccc2c2cc(NC(=O)COc3cccc(C)c3)ccc21	-10%	3%
O=C(C1CC1)N1CCN=C1SCc1ccccc1	12%	5%
N#C/C(=C/c1ccccc1)C(=O)NCc1ccccc1	-21%	-15%
Cn1c(=O)n(C)c2cc(/C=N/NC(=O)c3cccc(Br)c3)ccc21	-7%	-6%
COC(=O)c1ccccc1NC(=O)CSc1n[nH]c(C)n1	-14%	-11%&1%
CCc1ccccc1NCc1nnc2n1CCCCC2	3%	6%
Cc1ccc(CN(Cc2ccco2)C(=O)COc2cccc(C)c2C)o1	1%	-5%
CN(C)CCN(C(=O)c1ccc(S(=O)(=O)N(C)CC2CCCO2)cc1)c1nc2cc3c(cc2s1)OCO3 (centres undefined)	-7%	-7%
O=C(Nc1cccc(O)c1)c1cc(S(=O)(=O)N2CCCC2)ccc1Cl	/	?
O=C(CNC(=O)OCc1ccccc1)Oc1cc2oc(=O)cc(-c3ccccc3)c2cc1Cl	-14%	-10%
COc1ccc(/C=C2\SC(N3CCc4ccccc4C3)=NC2=O)cc1	i	-7%
CC(=O)c1cc(CN2C(=O)CCC2=O)cs1	-13%	0%
Cc1ccc(N(CC(=O)Nc2ccc(Br)cc2)S(=O)(=O)c2cccs2)cc1	-4%	9%
O=C(Cc1cccs1)NCc1cn2ccccc2n1	-7%	1%
COc1ccc(C(C(=O)Nc2ccc(F)cc2)N2CCN(c3cccc(C(F)(F)F)n3)CC2)cc1 (centres undefined)	-27%	-27%
COc1cc(OC)cc(-n2nnnc2SCC(=O)N2CCCc3ccccc32)c1	i	-6%
CC(C)(C)c1ccc(C2(C)NC(=O)N(CC(=O)NC3CCS(=O)(=O)C3)C2=O)cc1 (centres undefined)	-15%	-12%
COc1ccc(-c2cc(C(=O)Oc3cccc(C)c3)c3ccccc3n2)cc1	-4%	-9%
O=C(c1ccc(Br)cc1)N1CCC2(CC1)NCCc1[nH]cnc12	-16%	-4%
Cc1ccc(NC(=O)CN2C(=O)CSc3ccc(S(=O)(=O)N4CCCC4)cc32)c(C)c1	-5%	-6%
CC(C)=CCC[C@@](C)(O)[C@H]1CC=C(C)CC1	i	-2%
COC(=O)CSc1nc(N)c2c3c(sc2n1)CCCC3	-9%	-5%
Cc1ccc(Cl)cc1N1CCN(C(=O)CCSCc2ccccc2F)CC1	-12%	-10%
CCN(CC)C(=O)Oc1ccc(Br)cc1C(=O)Nc1ccc(F)cc1F	i	-13%
COc1ccc(OC)c(NC(=O)C2(C)CCN2C(=O)C2(c3ccccc3)CCCC2)c1 (centres undefined)	27%	-5%
CCCOc1ccc(C(=O)CCNc2cccc(Cl)c2)cc1	-3%	-7%
C/C(=N\NC(=O)c1ccc(NS(=O)(=O)c2cccs2)cc1)c1ccccc1	-13%	-5%
COc1ccc(NC2CCCN(C(=O)CSc3ccccn3)C2)cc1OC (centres undefined)	?	-14%
OC(CN(c1ccccc1)c1ccccc1)Cn1cnc2ccccc21 (centres undefined)	/	?
Cc1cc(=O)n2[nH]cnc2n1	-4%	7%
